# KCNQ2 inh = KCNQ2 channel blockers in CHO-K1 cells – cell-based, FluxOR thallium flux, B-score, primary screen (AID 2156) | O88943 | 20 min; hits give low values; only compounds with negative scores are shown here; some inactives read as strong as hits | B-score at 10 µM | actives 1.1% (n = 310,000);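 active means fluorescence ratio B-score at most minus 3 library SDs, with starting brightness B-score within 2 library SDs, cut at about -5.5 in these data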
# Target sequence (O88943 whole entry, looked up): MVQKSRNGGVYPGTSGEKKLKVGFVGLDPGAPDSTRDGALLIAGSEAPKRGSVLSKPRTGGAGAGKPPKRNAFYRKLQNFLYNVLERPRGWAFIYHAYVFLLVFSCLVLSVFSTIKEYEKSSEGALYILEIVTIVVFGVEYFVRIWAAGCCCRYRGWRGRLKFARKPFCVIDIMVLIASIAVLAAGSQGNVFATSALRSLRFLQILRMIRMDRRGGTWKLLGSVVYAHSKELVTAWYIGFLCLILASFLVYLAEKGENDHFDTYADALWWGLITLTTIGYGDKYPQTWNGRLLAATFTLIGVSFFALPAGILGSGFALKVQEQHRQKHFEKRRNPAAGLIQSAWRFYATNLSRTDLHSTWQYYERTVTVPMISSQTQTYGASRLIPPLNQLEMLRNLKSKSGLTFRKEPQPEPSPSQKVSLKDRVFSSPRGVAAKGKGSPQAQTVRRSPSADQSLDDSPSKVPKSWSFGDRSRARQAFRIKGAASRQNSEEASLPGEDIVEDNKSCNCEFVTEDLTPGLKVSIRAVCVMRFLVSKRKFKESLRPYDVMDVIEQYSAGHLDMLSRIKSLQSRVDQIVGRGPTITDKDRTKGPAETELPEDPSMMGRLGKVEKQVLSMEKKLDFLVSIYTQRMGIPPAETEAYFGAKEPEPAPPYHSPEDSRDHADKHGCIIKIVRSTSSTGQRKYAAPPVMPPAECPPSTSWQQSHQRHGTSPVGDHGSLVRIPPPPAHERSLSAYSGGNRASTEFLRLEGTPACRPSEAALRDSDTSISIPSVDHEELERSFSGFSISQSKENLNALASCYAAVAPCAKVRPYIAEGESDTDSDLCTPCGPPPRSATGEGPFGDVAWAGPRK
# KCNQ2 inh baseline = also measured in KCNQ2 inh; calls as there; B-score; measured here: initial fluorescence intensity artifact check;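 brightness before thallium and not channel activity; 0 = typical well and far values either way flag optical interference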
# * = called active by the depositor; i = inactive.
KCNQ2 inh | KCNQ2 inh baseline | structure
i | 0.07 | CN1CCN(C(=O)c2ccc3c(=O)n(Cc4ccco4)c(=S)[nH]c3c2)CC1
i | -0.99 | CC1=NNC(=O)/C1=C\c1cn(-c2ccccc2)nc1-c1cccs1
i | 0.2 | O=C(CN1CCN(c2ccccn2)CC1)Nc1ccc(Br)cc1
i | 2 | Cc1noc(C)c1S(=O)(=O)N1CCC2(CC1)OCCO2
i | -0.82 | COc1ccc(C2Nc3ccccc3C(=O)N2NS(=O)(=O)c2ccc(C)cc2)c(OC)c1 (stereo not drawn)
i | 0.77 | Cc1ccccc1-n1nc(CSc2nc3ccccc3[nH]2)c(-c2ccccc2)c1N
i | -0.08 | Cc1ccc(N(C(C)C(=O)Nc2ccccc2C(=O)N2CCOCC2)S(C)(=O)=O)cc1C (stereo not drawn)
i | -0.93 | O=C(c1cnccn1)N1CCc2c([nH]c3ccccc23)C1c1cccc(Cl)c1 (stereo not drawn)
i | 0.01 | COc1ccccc1-n1c(SCC(=O)Nc2cccc(C(=O)O)c2)nnc1-c1ccccc1O
i | -0.7 | O=C(NNC(=O)C1CC2CCC1C2)c1sc2ccccc2c1Cl (stereo not drawn)
i | 1.3 | O=C1[C@H]2[C@@H](c3ccc(F)cc3)N3C(=O)N(c4cccc(Cl)c4)C(=O)[C@@]3(Cc3ccc(Cl)cc3)[C@H]2C(=O)N1C1CCCCC1
i | -0.06 | Cc1cccc(NC(=O)N2CCC(c3nc4ccccc4o3)CC2)c1
i | -0.4 | O=C(CCS(=O)(=O)c1ccc(F)cc1)Nc1nc(-c2ccccn2)cs1
i | -1.3 | OCc1cnc(SCc2ccccc2)n1Cc1ccccc1
i | 2.2 | COc1ccc2cc(CN(Cc3cccnc3)Cc3nnnn3Cc3ccccc3)c(=O)[nH]c2c1
i | -0.65 | COc1ccc(CNC(=O)CN2C(=O)COc3ccc(S(=O)(=O)N4CCCCC4)cc32)cc1
i | -0.73 | CCOC(=O)c1c(NC(=O)c2ccoc2C)sc(C(=O)N(C)C)c1C
i | -0.13 | CN(C)/C=N/C(=S)Nc1ccc(F)cc1
i | 3.1 | Cc1cc(N2CCCC2)nc2ccc(NC(=S)NCCCOC(C)C)cc12
-5.9* | 0.31* | CCOc1c(C)cnc2c1c(=O)n(Cc1ccc(Cl)cc1)c(=O)n2C
i | -2.1 | CC(=O)Nc1ccc(OS(=O)(=O)c2ccc(C)cc2C)cc1
i | 1.4 | O=C1C2C3C=CC(C3)C2C(=O)N1CCc1ccccc1 (stereo not drawn)
i | 0.46 | CCc1ccc(C(=O)NNC(=O)c2cc(S(=O)(=O)N(C)C)ccc2N2CCCC2)cc1
i | 0.05 | CCOC(=O)N1CCC(NC(=O)CSc2cc(=O)n(C)c3ccccc23)CC1
i | 0.32 | CCC(=O)Nc1nc(C)c(C(=O)NC2CCCCC2)s1

# 5 entries from above, with two lines to a compound:
# Order of values – KCNQ2 inh | KCNQ2 inh baseline
> COc1ccc(CNC(=O)CN2C(=O)COc3ccc(S(=O)(=O)N4CCCCC4)cc32)cc1
  i | -0.65
> CCOc1c(C)cnc2c1c(=O)n(Cc1ccc(Cl)cc1)c(=O)n2C
  -5.9* | 0.31*
> CCOC(=O)c1c(NC(=O)c2ccoc2C)sc(C(=O)N(C)C)c1C
  i | -0.73
> CC(=O)Nc1ccc(OS(=O)(=O)c2ccc(C)cc2C)cc1
  i | -2.1
> CCOC(=O)N1CCC(NC(=O)CSc2cc(=O)n(C)c3ccccc23)CC1
  i | 0.05

# Next results
KCNQ2 inh | KCNQ2 inh baseline | structure
i | 1.3 | CCOC(=O)c1c(-c2ccccc2)oc2ccc(OCC)cc12
i | 0.13 | Cc1cc(C(=O)N[C@H](c2ccccc2)[C@@]2(C)C[C@@H]2[C@@H](C)C(=O)Nc2ccc3ccccc3c2)n(C)n1
i | -0.01 | O=C(CSc1ccc(Cl)cc1)Nc1ccccc1N1CCN(C(=O)c2ccc(Cl)cc2)CC1
i | 0.32 | CC(C)=CCc1c(O)c(CC=C(C)C)c2c(c1O)C(=O)CC(c1ccc(O)cc1)O2 (stereo not drawn)
i | 0.35 | Cn1c(SCc2ccccc2)nc(C(F)(F)F)cc1=O
i | -0.34 | COc1ccc(Cl)cc1NC(=O)c1cc(-c2ccc(C)cc2O)n[nH]1
i | -0.1 | O=C(Nc1ccc(Cl)cc1)Nc1ccc(Br)cn1
i | 2.5 | O=C(NCc1cccc(Br)c1)C1CC(c2ccccc2[N+](=O)[O-])=NO1 (stereo not drawn)
i | -0.25 | O=S(=O)(c1ccc2oc3ccc(S(=O)(=O)N4CCCCC4)cc3c2c1)N1CCCCC1
i | -0.09 | COC(=O)N1c2ccccc2C=Cc2ccccc21
i | 0.55 | Cc1c(Cc2ccccc2)c(=O)oc2cc(OCC(=O)N[C@@H](Cc3ccccc3)C(=O)O)ccc12
-6.5* | -1.3* | O=C(CSc1nnc(Cc2cccs2)n1CCc1ccccc1)N1CCCc2ccccc21
i | -0.22 | C=CC[C@@H]1C=C[C@H](O/N=C/[C@@H](NS(=O)(=O)c2ccc(C)cc2)[C@H](C)/C=C/CC(=O)OC)[C@@H](CO)O1
i | 0.5 | COc1ccc(/C=C/C(=O)Oc2cc(O)cc(O)c2)cc1
i | 0.86 | COc1ccc(N(CC(=O)Nc2cc(C)on2)S(=O)(=O)c2cc(C)ccc2C)cc1
i | 2.5 | CCOc1ccc2nc(Cl)c(C3CC(c4ccccc4)=NN3C(=O)c3cccs3)cc2c1 (stereo not drawn)
i | -0.11 | CO/N=C/C=C1/N(C)c2ccccc2C1(C)C
i | 0.13 | Cc1ccc(-c2nc(CN(Cc3cnn(C)c3)C(C)C)c(C)o2)o1
i | 0.65 | Cc1ccc(NC(=S)/N=C(\N)Nc2nc(C)c3cc(C)ccc3n2)c(C)c1
i | 0.04 | COc1ccc(C(=O)Nc2ccc(Cl)cc2C(=O)NCCO)cc1
i | -2.3 | N#Cc1ccccc1NC(=O)CSC1=Nc2ccccc2C2CC=NN12 (stereo not drawn)
i | 0.44 | Cc1cccc(/N=C/c2nc(-c3ccccc3Br)oc2O)n1
i | 0.36 | COc1ccc(-c2nn(-c3ccccc3)cc2CN2CCCO2)c(F)c1
i | -0.48 | CCc1cc(=O)oc2cc(C)cc(OCC(=O)NCCCN3CCOCC3)c12
i | 0.65 | Cc1ccc(-c2cc(NC(=O)c3ccccc3)on2)cc1
i | 0.29 | COc1ccccc1CN1CCNC(=O)C1CC(=O)NCCC1=CCCCC1 (stereo not drawn)
i | -0.42 | Cc1cccc(N2CCN(S(=O)(=O)c3ccc4c(c3)NC(=O)CS4)CC2)c1C
i | -1 | CCc1ccccc1N1CC23C=CC(O2)C(C(=O)OC)C3C1=O (stereo not drawn)
i | -0.82 | COc1ccc(CNC(=O)C(C)OC(=O)C23CC4CC(CC(O)(C4)C2)C3)cc1 (stereo not drawn)
i | -2.8 | Cc1cc(OCC(=O)N(Cc2ccco2)C2CCS(=O)(=O)C2)ccc1Cl (stereo not drawn)
i | -1.6 | O=C(NCc1cccs1)c1cc2c(s1)CS(=O)(=O)C2
i | -2.1 | COc1ccc2nc(NC(=O)CSC3=NCCS3)sc2c1
i | -1.9 | Cc1ccc(C)c2[nH]c(=O)c(CCNC(=O)c3cccs3)cc12
i | -0.43 | CN(C)CC/C=C1/c2cc(F)ccc2Sc2ccc(Cl)cc21
i | 0.47 | NC(=O)NC(=O)COC(=O)/C=C/c1cccs1
i | 0.55 | O=S(=O)(c1ccccc1)n1nc(-c2ccccc2)nc1NCc1ccco1
i | -0.74 | NC(=NC(=O)c1cccc(C(F)(F)F)c1)c1ccc(C(F)(F)F)cn1
i | -0.67 | O=c1[nH]c(CN2CCN(C/C=C/c3ccccc3)CC2)nc2cc(Cl)ccc12
i | -0.92 | CCCC(C)NC(=O)c1ccccc1SC (stereo not drawn)
i | -1.6 | O=C(CCCN1C(=O)/C(=C\c2ccccc2)SC1=S)Nc1ccccc1O
i | 2.9 | CC(C)(C)c1ccc(C2(C)NC(=O)N(CC(=O)Nc3ccc4c(c3)OCO4)C2=O)cc1 (stereo not drawn)
i | 0.09 | Cc1ccc(NC(=O)CSc2nnc(-c3ccc(S(=O)(=O)N4CCOCC4)cc3)n2C)cc1
-7.6* | 1.4* | O=c1c2ccccc2nc(-c2ccccc2)n1/N=C/c1ccc([N+](=O)[O-])cc1
i | -0.7 | CC(C)Oc1ccc(C(CC(=O)O)c2ccc(F)cc2)cc1 (stereo not drawn)
i | 4.9 | CCOc1ccc(/C=N/NC(=O)C(C)N(c2ccc(OC)cc2)S(C)(=O)=O)cc1 (stereo not drawn)
i | 0.38 | CN(C)/C=N/NC(=O)c1ccccc1
i | -0.92 | Cc1cccc(Oc2nc(-c3ccccn3)nc3ccccc23)c1
i | -1 | O=c1cc(-c2ccc(Cl)cc2)[nH]c2ccccc12
i | -0.14 | Cc1ccc(Nc2nc(-c3cccnc3)cs2)cc1Cl
i | 1.9 | NC(=O)N1OCC2COc3ccc4ccccc4c3C21 (stereo not drawn)

# Quoted at random: two entries already listed
KCNQ2 inh | KCNQ2 inh baseline | structure
i | 0.36 | COc1ccc(-c2nn(-c3ccccc3)cc2CN2CCCO2)c(F)c1
i | 1.3 | CCOC(=O)c1c(-c2ccccc2)oc2ccc(OCC)cc12

# The listing continues:
KCNQ2 inh | KCNQ2 inh baseline | structure
i | -0.98 | COC(=O)C(Cc1ccccc1)NC(=O)CCNC(=O)c1ccc(Br)cc1 (stereo not drawn)
i | -0.82 | O=C(CCN1CCCCC1)c1ccc2c(c1)OCCO2
-6.3* | -0.8* | CC1CN(c2nc(-c3ccccc3)nnc2-c2ccccc2)CC(C)O1 (stereo not drawn)
-10* | -1.1* | Fc1ccc2[nH]c3c(N4CCSCC4)ncnc3c2c1
i | 0.01 | NNC(=O)COc1ncn(-c2ccccc2)n1
i | -0.67 | COc1ccc(NC(=O)COC(=O)[C@@H]2CCCN2C(=O)c2cccs2)c(OC)c1
i | -1.5 | CCCOc1ccc(N2C(=O)CC(N3CCN(S(=O)(=O)c4ccccc4)CC3)C2=O)cc1 (stereo not drawn)
i | 0.98 | Nc1[nH]c(=O)[nH]c(=O)c1N=Nc1ccc(C(=O)O)cc1
i | 1.6 | CC(C)C[C@H](NC(=O)C1CC(=O)N(c2ccc3c(c2)OCO3)C1)C(=O)NC1CCCC1 (stereo partly drawn)
i | -1.4 | O=C(CCCNC(=O)c1ccc(Cl)cc1)Nc1ccc(Br)cc1
i | 2.6 | CN(C)CCNc1nc2sc3c(c2c(=O)n1-c1ccccc1)CCCCC3
i | -0.87 | CCN1CCN(CCc2nc3cc(NC(=O)COc4ccccc4)ccc3n2C)CC1
i | -1.3 | O=C(Nc1c(C(=O)N2CCOCC2)cnn1-c1ccccc1)c1ccc(F)cc1
i | -0.34 | CCC1=Nc2cc(C(=O)NCCN3CCOCC3)ccc2Sc2ccc(Br)cc21
i | 0.77 | O=C(c1cnc2nc3ccccc3n2c1)c1cc(F)ccc1O
i | -0.9 | CCOC(=O)CSc1nnc(NC(=O)c2ccco2)s1
i | -1.2 | C=CCn1c(CNc2ccccc2)nnc1SCC(=O)N/N=C/c1ccccc1O
i | 0.6 | O=C(CCNC(=O)c1ccc(Cl)cc1)Nc1ncccc1O
i | -0.09 | CCNS(=O)(=O)c1ccc(CCC(=O)NCc2ccc(C)cc2)cc1
i | 0.24 | COc1ccc(C(=O)Nc2ccccc2N2CCOCC2)cc1[N+](=O)[O-]
i | -0.62 | COc1ccc(C2CC(c3cccs3)=NN2c2nc(C)c(C(C)=O)s2)cc1OC (stereo not drawn)
i | 0.03 | Cc1ccc(OCc2nnc(SCC(=O)Nc3ncc(C)s3)o2)cc1
i | 1.7 | Cc1cc(OC(=O)Cc2cccc3ccccc23)c([N+](=O)[O-])c(=O)[nH]1
i | -2.1 | CC(Oc1ccc(C(=O)c2ccc(F)cc2)cc1)C(=O)N1CCOCC1 (stereo not drawn)
i | -0.54 | CC1CCN(S(=O)(=O)c2ccc3c(ccn3CCC(=O)N3CCCCC3)c2)CC1

# Profiles, quoted from the list. Screens in order: KCNQ2 inh | KCNQ2 inh baseline
# Shown for `CC1=NNC(=O)/C1=C\c1cn(-c2ccccc2)nc1-c1cccs1` → i | -0.99
# Shown for `COc1ccc(CNC(=O)C(C)OC(=O)C23CC4CC(CC(O)(C4)C2)C3)cc1` (stereo not drawn) → i | -0.82

# Continued.
KCNQ2 inh | KCNQ2 inh baseline | structure
i | -0.08 | COc1ccc(S(=O)(=O)NC(C)C(=O)NCc2cccnc2)cc1OC (stereo not drawn)
i | 0.06 | Cc1ccc(Cn2c(=N)c(C(=O)NCc3ccco3)cc3c(=O)n4ccccc4nc32)cc1
i | 0.26 | CCN1CCN(C(=O)c2ccc(CN(c3ccc(C)c(C)c3)S(C)(=O)=O)cc2)CC1
i | 2.2 | CCCn1nc(C(=O)OCC(=O)c2c(N)n(C)c(=O)n(C)c2=O)c2ccccc2c1=O
i | -0.74 | Cc1csc(SC(C)c2nc3scc(-c4ccccc4)c3c(=O)[nH]2)n1 (stereo not drawn)
i | -1.5 | O=C(Nc1ccc(OC(F)(F)F)cc1)C1CCCN(S(=O)(=O)c2cnc[nH]2)C1 (stereo not drawn)
i | 0.04 | OCc1ccc(O)c2ncccc12
i | 2.1 | CCC1(COC(=O)Nc2cccc(Cl)c2)COC1
i | 4.4 | O=C(CCc1c[nH]c2ccccc12)OCc1cccc(C(F)(F)F)c1
i | 0.49 | Cc1ccc(NC(=O)COC(=O)c2ccn(C)n2)cc1
i | 3.6 | COc1ccccc1N(CC(O)COc1c(C)cc(C)cc1C)S(=O)(=O)c1ccccc1 (stereo not drawn)
i | -1 | O=C(CSc1nc(=O)n(CCCN2CCOCC2)c2c1CCCC2)Nc1ccc(F)cc1
i | -0.66 | NC(=O)CC(NC(=O)c1ccccc1)c1ccc(NCCOc2ccccc2)c([N+](=O)[O-])c1 (stereo not drawn)
i | 0.97 | Cc1c(OCc2ccccc2)c(=O)ccn1Cc1ccc(Cl)cc1
i | -0.73 | N#Cc1c(-c2ccc(Cl)cc2)cc(-c2cccs2)nc1SCC(=O)O
i | 0.04 | Cc1ccccc1NC(=O)NCC1CCCO1 (stereo not drawn)
i | -3.2 | C/C(Cl)=C/CSc1nn2c(=O)c3ccccc3nc2s1

# Only part of the results is shown (hit frequency here may not be typical).
